RecA intein inh = Mtb RecA intein splicing inhibitors, primary screen, biochemical, fluorescence, HTS; Protein RecA (Mycobacterium tuberculosis (strain ATCC 25618 / H37Rv)), P9WHJ3; cell-free RecA intein splicing; inhibition, %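 (about 9 µM by stock and volumes)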; actives 0.75% (n = 290,000); AID 2221, 2009; in the data active means inhibition above about 30%; inconclusive means no clear call, values can overlap the other calls;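 further: 0% = vehicle wells and 100% = reference inhibitor control wells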
Target sequence (P9WHJ3 whole entry, looked up): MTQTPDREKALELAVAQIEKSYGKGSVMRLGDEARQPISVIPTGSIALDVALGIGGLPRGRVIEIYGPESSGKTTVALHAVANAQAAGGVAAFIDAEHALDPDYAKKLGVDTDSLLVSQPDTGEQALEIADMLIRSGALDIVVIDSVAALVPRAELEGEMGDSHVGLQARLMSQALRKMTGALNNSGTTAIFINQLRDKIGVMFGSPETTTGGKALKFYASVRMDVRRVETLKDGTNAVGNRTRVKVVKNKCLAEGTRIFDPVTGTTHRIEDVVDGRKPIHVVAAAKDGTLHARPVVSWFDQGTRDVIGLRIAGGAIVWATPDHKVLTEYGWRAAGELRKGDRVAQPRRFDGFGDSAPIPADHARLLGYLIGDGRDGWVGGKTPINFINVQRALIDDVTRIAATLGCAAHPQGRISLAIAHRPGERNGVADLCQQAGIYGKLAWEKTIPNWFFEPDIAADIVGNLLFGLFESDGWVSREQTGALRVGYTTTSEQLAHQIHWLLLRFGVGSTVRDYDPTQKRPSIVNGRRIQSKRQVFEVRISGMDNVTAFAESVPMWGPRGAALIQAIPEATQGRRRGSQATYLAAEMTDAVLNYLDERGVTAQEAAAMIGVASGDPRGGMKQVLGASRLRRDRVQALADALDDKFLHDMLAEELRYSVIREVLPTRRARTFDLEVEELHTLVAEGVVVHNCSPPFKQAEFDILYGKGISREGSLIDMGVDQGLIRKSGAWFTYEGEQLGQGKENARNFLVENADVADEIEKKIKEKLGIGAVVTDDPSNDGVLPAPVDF
Mtb bLac sens = beta-lactam sensitization of Mtb H37Rv, H37Rv. M. tuberculosis H37Rv growth with meropenem, percent inhibition; hits of this screen are not shown here. actives 0.27% (n = 330,000). inhibition, % at 25 µM. AID 434955, 2010;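 active means about 74% or more and at least 40 points above the plate without the antibiotic, then above 30% in a dose series; inconclusive means first-round hits that could not be retested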;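 further: growth measured after seven days incubation then overnight dye step; 0% = bacteria only wells and 100% = bacteria with antibiotic; twin plates without the antibiotic show which effects depend on it; some results filed as inactive read as strong as hits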
Arbovirus anti = antivirals against arbovirus infection, primary screen, cell-based, full library, 10K replicate subset. arbovirus infection cell-based antiviral screen. inhibition, % at 10 µM. actives 0.37% (n = 200,000). AID 1251, 2008;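 active means inhibition from about 30%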;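 further: bluetongue infection of BSR cells; cell survival read as ATP light after 72 h; 0% = infected wells without compound and 100% = uninfected wells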
YopH PTP inh = YopH tyrosine phosphatase inhibitors, primary screen, biochemical, fluorescence Ex485/Em525; YopH tyrosine phosphatase [Yersinia enterocolitica]; inhibition, %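 (about 10 µM by stock and volumes)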; actives 0.16% (n = 140,000); AID 898, 2007;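 active means inhibition of 50% or more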;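 further: controls were vehicle for no effect and minimum signal wells for full effect; inactives centre near -20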
Mtb growth = M. tuberculosis H37Rv growth inhibitors, H37Rv strain (AID 1626); inhibition, % at 10 µM; hits with a dose series show IC50 in µM; actives 0.95% (n = 220,000); M. tuberculosis H37Rv growth inhibition; higher % means a stronger effect;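 active means confirmed in a dose series; inconclusive means inhibition above 80% but not taken into the dose series; inactive means below 80% or under 30% at every dose of the series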;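 further: bacteria incubated seven days before Alamar blue readout; 0% = bacteria only wells and 100% = bacteria with antibiotic wells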
Arbovirus anti repeat = also measured in Arbovirus anti; calls as there; inhibition, %; measured here: 10K subset replicate screen; many hits read low in the repeat;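 first of two repeat runs on a subset; 0% = infected and 100% = uninfected wells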
An asterisk follows results filed as active.

Results for Cc1ccc(Cl)cc1NC(=O)C(Cc1ccccc1)N1C(=O)C2C3CCC(C3)C2C1=O (stereo not drawn) ?
RecA intein inh: 2.0; Mtb bLac sens: 3; Arbovirus anti: 3; YopH PTP inh: -28; Mtb growth: -1%

What do the screens show for `CCS(=O)(=O)N1Cc2ccccc2CC1C(=O)Nc1cccc(S(=O)(=O)N(C)C)c1` (stereo not drawn)?
RecA intein inh: -2.2; Mtb bLac sens: 6

How did O=C(Nc1ccc2ccccc2c1)c1ccc(NS(=O)(=O)c2ccc(Br)s2)cc1 do in these assays?
RecA intein inh: 0.9; Mtb bLac sens: 9; Arbovirus anti: -6; YopH PTP inh: -33; Mtb growth: 27%

Results for CC1(OC(=O)C2CCCC2)C(=O)C=C2C=C(c3ccsc3)N(C3CCCCC3)C=C2C1=O (stereo not drawn) ?
RecA intein inh: 5.0; Mtb bLac sens: 8; Mtb growth: -4%

What do the screens show for `CC(C)Cn1c(N)c(C(=O)COC(=O)c2cnc(Cl)c(Cl)c2)c(=O)n(C)c1=O`?
RecA intein inh: 7.4; Mtb bLac sens: 98; Arbovirus anti: 5; Mtb growth: 8µM*

Results for CC(C)N=c1scc(-c2ccco2)n1/N=C/c1ccc(O)c(O)c1 ?
Mtb bLac sens: 47; Arbovirus anti: -30; YopH PTP inh: -41; Mtb growth: -1%

Results for O=C(O)c1ccc(N2C(=O)c3cccnc3C2=O)cc1 ?
RecA intein inh: 0.2; Mtb bLac sens: -3; Arbovirus anti: 6; Mtb growth: -5%

How did c1ccc(CC2CNc3ccccc3CN2)cc1 (stereo not drawn) do in these assays?
RecA intein inh: 0.2; Mtb bLac sens: 2; Arbovirus anti: 3; YopH PTP inh: -31; Mtb growth: -10%

What do the screens show for `CCC(C)NS(=O)(=O)c1cccs1` (stereo not drawn)?
RecA intein inh: 0.9; Mtb bLac sens: -4; Arbovirus anti: 7; YopH PTP inh: 8; Mtb growth: 9%

How did Cc1ccc(NC2CCCN(C(=O)CCC3(C)CC3)C2)cc1C (stereo not drawn) do in these assays?
RecA intein inh: -1.0; Mtb bLac sens: 2

How did CCOC(=O)NC(=S)c1ccc[nH]1 do in these assays?
RecA intein inh: 0.2; Mtb bLac sens: 4; Arbovirus anti: 3; YopH PTP inh: -15; Mtb growth: 0%

Results for O=C1CCCN1CCCNC(=S)Nc1ccccc1Cl ?
RecA intein inh: 1.7; Mtb bLac sens: 14; Arbovirus anti: 17; Mtb growth: 1%

Reprinted from the part before: three entries, followed by the next part.
How did Cc1ccc(NC2CCCN(C(=O)CCC3(C)CC3)C2)cc1C (stereo not drawn) do in these assays?
RecA intein inh: -1.0; Mtb bLac sens: 2

How did CCOC(=O)NC(=S)c1ccc[nH]1 do in these assays?
RecA intein inh: 0.2; Mtb bLac sens: 4; Arbovirus anti: 3; YopH PTP inh: -15; Mtb growth: 0%

Results for O=C1CCCN1CCCNC(=S)Nc1ccccc1Cl ?
RecA intein inh: 1.7; Mtb bLac sens: 14; Arbovirus anti: 17; Mtb growth: 1%

Results for CCCCCCn1c(Br)nc2c1c(=O)n(C)c(=O)n2C ?
RecA intein inh: 1.9; Mtb bLac sens: -1; Arbovirus anti: 5; Mtb growth: 5%

Results for COc1ccccc1-n1c(CNC(=O)c2ccccc2)nnc1SCC(=O)Nc1nnc(C)s1 ?
Mtb bLac sens: -4; Arbovirus anti: 9; Mtb growth: -6%; Arbovirus anti repeat: 3

Results for O=C(Nc1ccc(-c2cscn2)cc1)C1CCCN(Cc2ccccc2)C1 (stereo not drawn) ?
RecA intein inh: 2.5; Mtb bLac sens: 72

How did COc1ccc(CNCC(O)(c2ccccc2)c2ccccc2)cc1 do in these assays?
RecA intein inh: -0.6; Mtb bLac sens: -5

Results for O=C(NC1CCC(NC(=O)C(F)(F)C(F)F)CC1)C(F)(F)C(F)F (stereo not drawn) ?
RecA intein inh: 1.1; Mtb bLac sens: -11; Arbovirus anti: 3; YopH PTP inh: -44; Mtb growth: 3%

Results for CCOc1cc(CNS(=O)(=O)c2ccc3c(c2)CC(=O)N3C)cc(OCC)c1OCC ?
RecA intein inh: 0.2; Mtb bLac sens: -3

Results for Cc1cc(NC(=O)Nc2ccc(Cl)c(Cl)c2)n(-c2ccccc2)n1 ?
RecA intein inh: 3.4; Mtb bLac sens: -2

How did CN1C(=O)/C(=C/c2ccc(C(F)(F)F)cc2)Sc2ccc(C(=O)N3CCN(c4ccccn4)CC3)cc21 do in these assays?
RecA intein inh: -4.5; Mtb bLac sens: 64

Results for Cc1cccc(C)c1NC(=O)CSCCO ?
RecA intein inh: -5.5; Mtb bLac sens: -1; Arbovirus anti: -2; YopH PTP inh: -19; Mtb growth: -4%

Results for CCC(CC)NC(=O)COC(=O)c1cc(Br)ccc1Cl ?
RecA intein inh: 1.3; Mtb bLac sens: 95; Arbovirus anti: 5; YopH PTP inh: -1

How did CC(=O)N(CCc1cccc(C)c1)Cc1cc2cc(C)ccc2[nH]c1=O do in these assays?
RecA intein inh: 1.8; Mtb bLac sens: -9

How did COc1cc(NS(=O)(=O)c2ccc(NC(=O)CN3C(=O)c4ccccc4C3=O)cc2)ncn1 do in these assays?
RecA intein inh: -2.1; Mtb bLac sens: 0; Arbovirus anti: 7; Mtb growth: -7%

What do the screens show for `COc1ccc(C(=O)N2CCCCC2C(=O)Nc2ccc(-n3nc(C)cc3C)cc2)o1` (stereo not drawn)?
RecA intein inh: 1.0; Mtb bLac sens: 6

What do the screens show for `O=C(C1CCN(S(=O)(=O)c2cccs2)CC1)N1CCCCCC1`?
RecA intein inh: -3.4; Mtb bLac sens: -6; Arbovirus anti: 5; YopH PTP inh: 6; Mtb growth: -1%

What do the screens show for `NCCc1ccc(O)cc1`?
RecA intein inh: -1.2; Mtb bLac sens: 3; Arbovirus anti: -1; YopH PTP inh: 10; Mtb growth: -5%

Results for CCNC(=S)Nc1cc(OC)c(NC(=O)c2ccco2)cc1OC ?
RecA intein inh: -3.2; Mtb bLac sens: 0; Arbovirus anti: 1; Mtb growth: 0%

What do the screens show for `CCCn1c2ccccc2c2nnc(SCC(=O)Nc3ncccn3)nc21`?
RecA intein inh: 0.2; Mtb bLac sens: 0; Arbovirus anti: -4; YopH PTP inh: -44; Mtb growth: 0%

Results for COc1ccc(N2CC(O)=C(c3nc(-c4ccc(F)cc4)cs3)C2=N)cc1 ?
RecA intein inh: -1.9; Mtb bLac sens: -11; Arbovirus anti: 1; Mtb growth: -13%

How did Cc1cc(NC(=O)CCOc2ccccc2)no1 do in these assays?
RecA intein inh: -2.7; Mtb bLac sens: -2; YopH PTP inh: -29; Mtb growth: -12%

What do the screens show for `CC1(c2cc(C(F)(F)F)n3nc(C(=O)O)cc3n2)CC1`?
RecA intein inh: 3.8; Mtb bLac sens: 7; Arbovirus anti: 2; YopH PTP inh: -24; Mtb growth: -2%

How did C/C(=N\O)C1(C)N(O)C(C)(C)C(c2ccc(Br)cc2)=[N+]1[O-] (stereo not drawn) do in these assays?
RecA intein inh: -11; Mtb bLac sens: 4; Arbovirus anti: 9; YopH PTP inh: -32; Mtb growth: -4%

Results for COc1ccc(C(=O)NNC(=O)CCC(=O)Nc2ccc(C)cc2C)cc1 ?
RecA intein inh: -0.5; Mtb bLac sens: -7

What do the screens show for `CC(C)(C)C(=O)OCc1cn(-c2ccccc2)nn1`?
RecA intein inh: -0.6; Mtb bLac sens: -4; Arbovirus anti: 5; YopH PTP inh: -46; Mtb growth: -6%

How did Cc1cccc(Nc2c([N+](=O)[O-])ccc3nonc23)c1 do in these assays?
RecA intein inh: -1.9; Mtb bLac sens: 4

What do the screens show for `CCOC(=O)C1CCN(C(=O)COC(=O)CNC(=O)c2ccc(OC)cc2)CC1`?
RecA intein inh: -1.5; Mtb bLac sens: -8; Arbovirus anti: 6; Mtb growth: 1%

How did CC(C)C(c1nnnn1C1CCCC1)N1CCN(C(=O)c2ccco2)CC1 (stereo not drawn) do in these assays?
RecA intein inh: 0.3; Mtb bLac sens: -9; Arbovirus anti: -5; YopH PTP inh: -28; Mtb growth: 1%

Results for O=C(NCC1CCCC(CNC(=O)Nc2ccc(Cl)cn2)C1)Nc1ccc(Cl)cn1 (stereo not drawn) ?
RecA intein inh: 11; Mtb bLac sens: 97

What do the screens show for `Cc1ccc(-c2nc3ccsc3c(=O)[nH]2)cc1`?
RecA intein inh: -0.5; Mtb bLac sens: -2; Arbovirus anti: -1; Mtb growth: 5%

Results for COc1ccc(CC(=O)Nc2ccc(S(=O)(=O)Nc3ncccn3)cc2)cc1OC ?
RecA intein inh: -4.0; Mtb bLac sens: 3; Mtb growth: 0%

How did COCCN1C(=O)c2ccccc2C(C(=O)Nc2ccc3c(c2)OCCO3)C1c1ccc(F)cc1 (stereo not drawn) do in these assays?
RecA intein inh: 0.2; Mtb bLac sens: -6; Arbovirus anti: 2; YopH PTP inh: 6; Mtb growth: 0%

Results for COC(=O)c1ccccc1SCC(=O)Nc1ccc(N2CCOCC2)cc1 ?
RecA intein inh: 2.9; Mtb bLac sens: inconclusive

Results for CCc1ccc(C(=O)/C=C/c2cnn(C)c2C)s1 ?
RecA intein inh: 8.6; Mtb bLac sens: -15; Arbovirus anti: 1; YopH PTP inh: -29; Mtb growth: 8%

What do the screens show for `COc1ccccc1NC(=O)Nc1ccccc1C(N)=O`?
RecA intein inh: 0.3; Mtb bLac sens: -6; Arbovirus anti: 1; Mtb growth: 8%

How did Cn1cc(CCC(=O)NCc2cccc(Cl)c2)c2ccccc21 do in these assays?
RecA intein inh: 3.7; Mtb bLac sens: 1

Results for C=C(C)C1CC=C(C)/C(=N\NC(=O)CNc2cccc3ccccc23)C1 (stereo not drawn) ?
RecA intein inh: 0.6; Mtb bLac sens: 1; Arbovirus anti: -7; YopH PTP inh: -22; Mtb growth: 9%

Results for NC(=O)COc1ccccc1C(=O)NC12CC3CC(CC(C3)C1)C2 ?
RecA intein inh: -2.8; Mtb bLac sens: 3

How did CN(C)[C@H]1N(C(=O)c2ccc(Br)cc2)N=C2c3ccccc3S(=O)(=O)N21 do in these assays?
RecA intein inh: 3.0; Mtb bLac sens: -14; Arbovirus anti: 10; YopH PTP inh: -20; Mtb growth: -1%

What do the screens show for `CNC(=O)c1sc(Nc2ccc(OCc3ccccc3)cc2)nc1C`?
RecA intein inh: -2.0; Mtb bLac sens: 8

What do the screens show for `CCOC(=O)c1ccc2[nH]cc(C(C)=O)c(=O)c2c1`?
RecA intein inh: -0.5; Mtb bLac sens: 63; Arbovirus anti: 0; YopH PTP inh: -4; Mtb growth: 3%

Results for Cc1ccc(N=c2ssnc2Cl)cc1 ?
RecA intein inh: -2.2; Mtb bLac sens: 2; Arbovirus anti: -33; YopH PTP inh: -14; Mtb growth: -8%

Results for COc1cccc(C(C)NC(=O)Cc2cccs2)c1 (stereo not drawn) ?
RecA intein inh: 2.4; Mtb bLac sens: 1

What do the screens show for `CCOC(=O)c1[nH]c2ccc(Br)cc2c1NC(=O)CCN1CCCC(C)(C)C1`?
RecA intein inh: 8.2; Mtb bLac sens: -3; Arbovirus anti: 0; YopH PTP inh: 3; Mtb growth: 6%

How did COc1ccc(NC(=O)Cn2nnc(C(N)=O)c2N)c(OC)c1 do in these assays?
RecA intein inh: -11; Mtb bLac sens: -18; Arbovirus anti: 4; YopH PTP inh: -27; Mtb growth: -6%

What do the screens show for `O=C(CN1C(=O)c2ccccc2C1=O)c1ccccc1`?
RecA intein inh: 1.2; Mtb bLac sens: -8; Arbovirus anti: -3; YopH PTP inh: 13; Mtb growth: -3%

What do the screens show for `COc1cc(S(=O)(=O)N2CCOCC2)ccc1NC(=O)CSc1n[nH]c(=O)[nH]c1=O`?
RecA intein inh: -2.1; Mtb bLac sens: -1; Arbovirus anti: 11; Mtb growth: 5%

Results for O=C(NCC1CC1)c1ccc2c3n(nc2c1)-c1ccc(Cl)cc1CO3 ?
RecA intein inh: -4.9; Mtb bLac sens: 29; Mtb growth: 1%

Results for CC1CCCN(C(=S)Nc2ccc(S(=O)(=O)N3CCCCC3)cc2)C1 (stereo not drawn) ?
RecA intein inh: 0.2; Mtb bLac sens: 0; Mtb growth: -13%

Compounds shown so far that have a CF3 group, in the order listed:
How did CN1C(=O)/C(=C/c2ccc(C(F)(F)F)cc2)Sc2ccc(C(=O)N3CCN(c4ccccn4)CC3)cc21 do in these assays?
RecA intein inh: -4.5; Mtb bLac sens: 64

What do the screens show for `CC1(c2cc(C(F)(F)F)n3nc(C(=O)O)cc3n2)CC1`?
RecA intein inh: 3.8; Mtb bLac sens: 7; Arbovirus anti: 2; YopH PTP inh: -24; Mtb growth: -2%

These rows are one share of the data. The share of hits here may be higher or lower than overall.
